Screening results: PubChem, several laboratories
LANA-H2B inh – blocks KSHV LANA binding to histone H2A/H2B; Q9QR71; cell-free LANA-H2A/H2B peptide, fluorescence polarization; inhibition, % (concentration not given with the values); 320,000 tested, 0.6% active; AID 2629; in the data active = inhibition mostly above about 10%, no sharp cut-off; inactive = mostly below about 6.7%;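 note: stock transfer was 7.5 nL into about 10 µL; 0% = median of vehicle wells and 100% = median of positive control wells; one replicate is shown; the record names a cut of 25% in any replicate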
Beta cell apopt – blocks beta cell apoptosis; INS-1E cytokine-induced death, ATP luminescence, 48 h; percent of positive-control rescue, neutral wells zero; protection from apoptosis, % (no concentration beside the values); 300,000 tested, 0.8% active;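 active = all replicates at 75% or more, or half of them and the mean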;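 note: 0% = cytokine-treated negative control wells and 100% = positive control rescue; higher means more ATP so stronger rescue from cytokine killing; wells of about 40 µL received 100 nL stock; the first replicate is given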
Calb FLC – affects C. albicans growth with fluconazole | C. albicans CaCi-2 (fluconazole-resistant clinical isolate) + fluconazole, Alamar Blue growth, 48 h | growth inhibition, % (no concentration beside the values) | 300,000 tested, 0.57% active;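 active = most replicates above 75%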;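 note: all wells also contain fluconazole at 8 µg/ml as a sub-toxic cotreatment; 0% = median of DMSO wells and 100% = median of geldanamycin control wells; wells of about 8 µL received 7.5 nL stock; the first replicate is given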
rRNA inh HTS – selective bacterial rRNA inhibition in E. coli; E. coli WT GFP vs humanized-ribosome RFP mutants, fluorescence, 24 h; active compounds read low; DMSO median 0, no signal -100; GFP signal change (wild-type ribosome), % (concentration not given with the values); 350,000 tested, 1.6% active; AID 720706;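 active = significant combined selectivity score with lowered wild-type GFP, culture density cut under 30%, mutant RFP and density less affected; inactive = any of these conditions unmet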; note: one replicate is shown; some compounds called inactive have numbers as strong as hits
A1 inh – inhibitors of the anti-apoptotic protein A1, read as caspase activation; MEF A1-2A-BIM cells, Caspase-Glo 3/7 luminescence, 3 h; percent of clofoctol response, vehicle zero; 330,000 tested, 0.066% active; caspase activation, % (no concentration beside the values);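 active = over half of replicate activation scores above 10%, or exactly half above 10 with the replicate mean above 10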;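 note: wells of about 30 µL received 50 nL stock; many hits fall short of the cut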
ALR inh – human ALR oxidase inhibition via reduced H2O2; P55789; 290,000 tested, 3.8% active; inhibition, % (test concentration not listed); AID 485317; purified ALR, DTT oxidation, H2O2 HRP-luminol luminescence;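 active = mean and each replicate at 75% or more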;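 note: stock transfer was 7.5 nL into about 7.5 µL; 0% = neutral wells and 100% = wells with inactivated enzyme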
Target sequence (P55789 whole entry, looked up): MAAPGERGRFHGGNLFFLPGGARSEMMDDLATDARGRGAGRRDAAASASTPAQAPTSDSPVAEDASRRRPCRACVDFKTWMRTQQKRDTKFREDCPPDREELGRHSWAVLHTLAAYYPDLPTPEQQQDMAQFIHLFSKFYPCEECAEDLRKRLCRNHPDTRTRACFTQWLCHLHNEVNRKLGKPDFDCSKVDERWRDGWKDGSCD
Beta2AR agonist – activates human beta-2 adrenergic receptor causing internalization; P07550; Am2.2-beta2AR cells, FAP receptor internalization, flow cytometry; reference of the scale not given here; response, % (test concentration not listed); 340,000 tested, 0.43% active; AID 504454;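 active = response above a set limit, near 3 SD of response in nonfluorescent compounds, cut at about 42% in these data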;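 note: stock transfer was 100 nL into about 11 µL; a reference agonist was the positive control; negative values mostly stem from fluorescent compounds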
Target sequence (P07550 whole entry, looked up): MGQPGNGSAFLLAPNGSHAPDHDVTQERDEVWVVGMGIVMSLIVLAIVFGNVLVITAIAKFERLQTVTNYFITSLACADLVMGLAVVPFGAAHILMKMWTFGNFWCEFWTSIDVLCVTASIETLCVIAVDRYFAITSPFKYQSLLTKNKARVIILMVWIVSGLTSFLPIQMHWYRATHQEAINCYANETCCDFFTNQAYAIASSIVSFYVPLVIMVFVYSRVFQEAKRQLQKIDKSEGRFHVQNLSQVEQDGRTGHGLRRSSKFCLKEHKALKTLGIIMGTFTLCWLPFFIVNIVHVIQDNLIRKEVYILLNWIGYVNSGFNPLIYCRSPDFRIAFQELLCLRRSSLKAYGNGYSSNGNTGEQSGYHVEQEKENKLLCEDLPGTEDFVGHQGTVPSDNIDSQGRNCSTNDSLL
T cruzi inh – blocks replication of Trypanosoma cruzi; inhibition, % (test concentration not listed); AID 1885; T. cruzi beta-gal in NIH3T3, luminescence, 90 h; 300,000 tested, 1.4% active;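 active = mean inhibition across valid replicates above about 55%, limit read from the data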;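 note: signal also drops with host cell toxicity which is not excluded here; 0% = plate median of DMSO wells and 100% = zero luminescence signal; higher percent means less beta-gal luminescence so fewer parasites; stock transfer was 50 nL into about 50 µL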
rRNA inh HTS OD600 – also measured in rRNA inh HTS; calls as there; OD600 change, %; measured here: OD600 growth;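 optical density of the mix in the first replicate; 0 = DMSO median and -100 = no signal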
rRNA inh HTS RFP – also measured in rRNA inh HTS; calls as there; RFP signal change, %; measured here: RFP humanized mutant strains;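 first replicate; 0 = DMSO median and -100 = no signal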
* hit, by the source's call; · = no result given. This is a subset; rates above refer to the full screens.

SMILES	LANA-H2B inh	Beta cell apopt	Calb FLC	rRNA inh HTS	rRNA inh HTS OD600	rRNA inh HTS RFP	A1 inh	ALR inh	Beta2AR agonist	T cruzi inh
O=C(N/N=C/c1ccccn1)c1ccc(NC(=O)c2ccccc2Cl)cc1	0.7	·	-1	-21*	-10*	2.7*	-1.0	20	-8	3
Cc1cc(=O)oc(C)c1C(=O)N1CCc2c([nH]c3ccccc23)C1C(C)C (stereo unspecified)	-2.0	-3	1	3	5	2.4	0.3	-11	-2	17
Cc1ccc(OCC(=O)Nc2ccc3c(c2)OCO3)cc1C	1.8	7	-28	-15	-9	0.2	1.0	-7	11	-1
COCC(C)NC(=S)NCCc1ccc(Cl)cc1Cl (stereo unspecified)	-1.0	-3	-12	-31	-44	-12	1.1	9	-7	-25
O=C(Cn1cc2c(n1)CCCC2)N1CCCC1	-1.4	-7	-7	6	12	0.6	1.7	-9	2	0
CCOc1ccc(N(C(C)C(=O)N/N=C(\C)c2cccc(NC(=O)c3ccccc3)c2)S(C)(=O)=O)cc1 (stereo unspecified)	0.3	9	0	·	·	·	-1.1	-7	12	12
O=C1COc2ccc(C(=O)COC(=O)Cc3ccc(F)cc3)cc2N1	2.1	-9	3	2	6	-1.1	0.1	-18	-4	-16
CC(NC(=O)c1ccc(Cl)s1)C1CCCO1 (stereo unspecified)	-1.6	-7	-9	·	·	·	0.1	-6	6	-18
CCOC(=O)C1CCCN(C(=O)c2ccc3nc(-c4ccc(OC)c(OC)c4)c(-c4ccc(OC)c(OC)c4)nc3c2)C1 (stereo unspecified)	-1.9	·	21	-1	3	-1.1	2.3	1	18	37
O=C(O)c1ccc(N=NN2CCCC2)cc1	-3.9	4	9	4	3	-1.5	-1.4	3	5	-1
O=C(O)c1cc(N/N=C/c2ccc(N3CCOCC3)cc2)ccc1Cl	1.1	-4	2	11	8	-5.4	-3.4	97*	-2	-2
CC(C)OC(=O)CSc1nnc2c(n1)[nH]c1ccc(F)cc12	-3.5	5	-18	·	·	·	-0.5	-13	9	3
CCC1(CC)C(=O)Nc2ccccc21	3.5	-4	0	5	5	10	-0.3	-4	11	-4
Cc1occc1C(=O)Nc1cccc(S(=O)(=O)N2CCOCC2)c1	3.1	-3	·	6	7	2.9	1.6	-2	-3	·
CCN(CC)S(=O)(=O)c1ccc(NC(=O)c2ccc(CN3CCOCC3)cc2)cc1	-4.8	3	-1	·	·	·	0.4	·	2	-12
O=C(COC(=O)CNC(=O)c1ccccc1F)NCC(F)(F)F	1.8	-1	-3	-4	-4	7.8	0.0	-2	-1	-5
Cc1c(C(=O)NCCN2CCCC(O)C2)oc2c(F)cccc12 (stereo unspecified)	-1.8	0	-12	1	1	1.2	1.0	0	-6	-4
CCN(CC(=O)Nc1ccc(OC)cc1)C(=O)CN1C(=O)NC(C)(c2ccc3ccccc3c2)C1=O (stereo unspecified)	-5.0	0	14	-4	-12	-2.0	1.1	-2	1	-5
O=C(Nc1ncccn1)C1c2ccccc2Oc2ccccc21	0.7	2	-13	12	12	-3.1	0.6	-5	0	0
COc1ccc(C(C)C)cc1S(=O)(=O)Nc1ccccn1	-8.4	-3	6	6	-4	15	-0.2	-9	-6	-12

Some of these compounds in order of count of non-hydrogen atoms, smallest number first:
SMILES	LANA-H2B inh	Beta cell apopt	Calb FLC	rRNA inh HTS	rRNA inh HTS OD600	rRNA inh HTS RFP	A1 inh	ALR inh	Beta2AR agonist	T cruzi inh
COc1ccc(C(C)C)cc1S(=O)(=O)Nc1ccccn1	-8.4	-3	6	6	-4	15	-0.2	-9	-6	-12
O=C(N/N=C/c1ccccn1)c1ccc(NC(=O)c2ccccc2Cl)cc1	0.7	·	-1	-21*	-10*	2.7*	-1.0	20	-8	3
CCOc1ccc(N(C(C)C(=O)N/N=C(\C)c2cccc(NC(=O)c3ccccc3)c2)S(C)(=O)=O)cc1 (stereo unspecified)	0.3	9	0	·	·	·	-1.1	-7	12	12

Following part.
SMILES	LANA-H2B inh	Beta cell apopt	Calb FLC	rRNA inh HTS	rRNA inh HTS OD600	rRNA inh HTS RFP	A1 inh	ALR inh	Beta2AR agonist	T cruzi inh
Cc1ccc(C)n1-c1cc(S(=O)(=O)N2CCOCC2)ccc1N1CCCC1	8.6	0	8	·	·	·	-0.8	·	5	7
CCOC(=O)NNC(=O)c1ccc(Cl)cc1	-0.7	·	-11	·	·	·	-0.3	3	-4	-11
CCN(C(=O)Cc1ccccc1OC)c1nnc(-c2ccncc2)s1	0.8	1	-16	·	·	·	0.9	-5	8	25
CC1CCC2(CC1)NC(=O)N(CC(=O)NC1(C#N)CCCCC1)C2=O (stereo unspecified)	-2.1	·	8	22	10	1.6	0.5	-1	4	-8
O=C(NCc1ccc(F)cc1)C1CCC(CNS(=O)(=O)c2cccs2)CC1 (stereo unspecified)	3.8	-1	0	5	11	-1.9	0.0	0	1	-2
O=C(NC(NC(=O)c1c(F)cccc1F)c1ccc([N+](=O)[O-])cc1)c1c(F)cccc1F	0.2	-4	0	16	14	0.3	0.4	·	2	-7
COCC(C)NC(=O)c1ccc2nc(-c3ccccc3)c(-c3ccccc3)nc2c1 (stereo unspecified)	1.6	6	2	-5	-2	-4.0	0.0	5	8	21
CCOC1(C)OCC(=O)[C@]2(CCC3C4CCC5=CC(=O)C=CC5(C)C4C(=O)CC32C)O1 (stereo partly specified)	7.1	1	1	·	·	·	0.2	-2	0	0
N#Cc1ccc(C(=O)Nc2cccc3ccccc23)c(F)c1	-2.6	1	-4	18	19	5.9	1.1	3	2	-3
CCC(C)N1C(=O)N(c2cccc(Cl)c2)C(C)(O)CC1(C)C (stereo unspecified)	-2.8	-5	0	2	-9	0.6	0.4	2	3	25
CC(C)Oc1ccc(/C=N/NC(=O)c2nnn(-c3nonc3N)c2CN(C)c2ccccc2)cc1	-2.5	11	0	5	-10	-2.7	0.4	-1	6	9
O=C(NC(=S)N1CCCC1)c1ccc(Cl)cc1	-11	-3	2	3	1	-1.0	0.3	-6	1	-29
Cc1cc(SCC(=O)Nc2cccc(S(=O)(=O)NC3=NCCCCC3)c2)nc2ccccc12	-0.4	-8	-1	-23	-16	19	0.3	-14	5	10
Cc1ccc(Nc2c(-c3ccco3)nc3ccccn23)cc1	-2.7	3	23	-14	-24	-5.1	-1.6	99*	3	-5
COc1ccccc1-c1nc(-c2ccc(Br)cc2)no1	5.4	2	6	·	·	·	-1.9	-13	-5	9
CCOC(=O)C1=C(C)N(C)C(=O)NC1c1cccc([N+](=O)[O-])c1 (stereo unspecified)	4.7	-2	-16	2	11	-2.6	0.5	-2	-6	-18
Cc1cc(C)n(Cc2ccc(C(=O)NCCC3=CCCCC3)o2)n1	-2.2	-2	-5	·	·	·	0.5	-4	-1	6
S=C(Nc1ccccc1Cl)N(CCCN1CCOCC1)Cc1ccco1	-1.5	-8	11	·	·	·	0.5	-47	-8	-7
CC(=O)N/N=C(\C)c1ccc2c(c1)OCCO2	0.0	3	48	16	8	-3.6	-1.3	5	-6	2
CCN(CCO)C(=O)c1ccc2nc(Cc3cccc(Cl)c3)oc2c1	-2.5	-5	1	-2	3	-2.2	0.0	·	-4	-3
COC(=O)c1cccnc1NC(=S)NNC(=O)c1ccncc1	4.2	2	-1	1	3	-1.5	0.7	25	2	-8
OCCN(CC#CCC(O)(c1ccccc1)C1CCCC1)CCO (stereo unspecified)	2.8	0	-2	-1	19	-2.9	0.7	0	5	-2
CSc1nnc([C@@H](NC(=O)OC(C)(C)C)C(C)C)o1	0.5	1	-20	·	·	·	0.2	·	3	-7
Cn1c(CNC(=O)c2ccccc2F)nnc1SCC(=O)c1ccccc1	4.0	0	-3	-1	-1	0.9	-0.6	40	-5	-18
COc1ccc(CCNC(=S)N2CCC(C(N)=O)CC2)cc1	1.5	-2	3	7	3	-0.6	0.3	3	-3	-6
O=C(CSc1nc(O)cc(=O)[nH]1)N1CCOCC1	2.7	0	-13	9	6	-1.3	0.6	21	5	-1
O=C(Cn1ccc([N+](=O)[O-])n1)Nc1nccs1	0.1	-8	0	8	11	-4.4	-1.0	-4	3	7
CCS(=O)c1ccccc1C(=O)OC(C)C(=O)Nc1ccc(S(=O)(=O)N2CCCC2)cc1 (stereo unspecified)	-8.0	-6	-4	-3	-4	-0.7	0.4	-6	11	5

14 entries out of the list, ordered by length of the SMILES, falling.
SMILES	LANA-H2B inh	Beta cell apopt	Calb FLC	rRNA inh HTS	rRNA inh HTS OD600	rRNA inh HTS RFP	A1 inh	ALR inh	Beta2AR agonist	T cruzi inh
O=C(NC(NC(=O)c1c(F)cccc1F)c1ccc([N+](=O)[O-])cc1)c1c(F)cccc1F	0.2	-4	0	16	14	0.3	0.4	·	2	-7
CCS(=O)c1ccccc1C(=O)OC(C)C(=O)Nc1ccc(S(=O)(=O)N2CCCC2)cc1 (stereo unspecified)	-8.0	-6	-4	-3	-4	-0.7	0.4	-6	11	5
Cc1cc(=O)oc(C)c1C(=O)N1CCc2c([nH]c3ccccc23)C1C(C)C (stereo unspecified)	-2.0	-3	1	3	5	2.4	0.3	-11	-2	17
O=C(NCc1ccc(F)cc1)C1CCC(CNS(=O)(=O)c2cccs2)CC1 (stereo unspecified)	3.8	-1	0	5	11	-1.9	0.0	0	1	-2
CC1CCC2(CC1)NC(=O)N(CC(=O)NC1(C#N)CCCCC1)C2=O (stereo unspecified)	-2.1	·	8	22	10	1.6	0.5	-1	4	-8
O=C1COc2ccc(C(=O)COC(=O)Cc3ccc(F)cc3)cc2N1	2.1	-9	3	2	6	-1.1	0.1	-18	-4	-16
CCN(CCO)C(=O)c1ccc2nc(Cc3cccc(Cl)c3)oc2c1	-2.5	-5	1	-2	3	-2.2	0.0	·	-4	-3
CCN(C(=O)Cc1ccccc1OC)c1nnc(-c2ccncc2)s1	0.8	1	-16	·	·	·	0.9	-5	8	25
Cc1c(C(=O)NCCN2CCCC(O)C2)oc2c(F)cccc12 (stereo unspecified)	-1.8	0	-12	1	1	1.2	1.0	0	-6	-4
COC(=O)c1cccnc1NC(=S)NNC(=O)c1ccncc1	4.2	2	-1	1	3	-1.5	0.7	25	2	-8
COc1ccc(C(C)C)cc1S(=O)(=O)Nc1ccccn1	-8.4	-3	6	6	-4	15	-0.2	-9	-6	-12
COCC(C)NC(=S)NCCc1ccc(Cl)cc1Cl (stereo unspecified)	-1.0	-3	-12	-31	-44	-12	1.1	9	-7	-25
CC(NC(=O)c1ccc(Cl)s1)C1CCCO1 (stereo unspecified)	-1.6	-7	-9	·	·	·	0.1	-6	6	-18
CCOC(=O)NNC(=O)c1ccc(Cl)cc1	-0.7	·	-11	·	·	·	-0.3	3	-4	-11
